Six1-Eya2 blk – qHTS Assay for Inhibitors of the Six1/Eya2 Interaction; 360,000 tested, 0.56% active; AlphaScreen GST-Six1/His-Eya2 binding, biochemical; stronger effect = lower value; control for the full effect not named in the record; activity change, % (concentration not given with the values); AID 651725, 2012; in the data active = activity change below about -65%; inconclusive = about -30% to -65%; inactive = above about -30%; further: on the % scale 0 is the no-effect control and ±100 the full control effect
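Six1/Eya2 binding was read as AlphaScreen signal after compounds were pinned into GST-Six1 plus His-tagged Eya2 (5X stock 250/500 nM) in pH 8.0 Tris/NaCl/TCEP buffer, beads added, then incubated 1 h, 37 C, dark.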
TRPML1 blocker – qHTS for Inhibitors of the Human Mucolipin Transient Receptor Potential 1 (TRPML1); activity change, negative = inhibition, % (concentration not given with the values); Mucolipin-1 (Homo sapiens), Q9GZU1; 390,000 tested, 0.02% active; TRPML1-inducible cells, Ca2+ dye fluorescence, FDSS; stronger effect = lower value; inhibition of EC80 agonist-evoked calcium signal; AID 624415, 2012; in the data active means activity change below about -50%; inconclusive means about -30% to -50%; inactive means above about -30%;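 further: stimulus is agonist 54-4 at its EC80 concentration; on the % scale 0 is the no-effect control and ±100 the full control effect; compound concentration not given in the record; the text of the record puts the active cut at -80%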
Target sequence (Q9GZU1 whole entry, looked up): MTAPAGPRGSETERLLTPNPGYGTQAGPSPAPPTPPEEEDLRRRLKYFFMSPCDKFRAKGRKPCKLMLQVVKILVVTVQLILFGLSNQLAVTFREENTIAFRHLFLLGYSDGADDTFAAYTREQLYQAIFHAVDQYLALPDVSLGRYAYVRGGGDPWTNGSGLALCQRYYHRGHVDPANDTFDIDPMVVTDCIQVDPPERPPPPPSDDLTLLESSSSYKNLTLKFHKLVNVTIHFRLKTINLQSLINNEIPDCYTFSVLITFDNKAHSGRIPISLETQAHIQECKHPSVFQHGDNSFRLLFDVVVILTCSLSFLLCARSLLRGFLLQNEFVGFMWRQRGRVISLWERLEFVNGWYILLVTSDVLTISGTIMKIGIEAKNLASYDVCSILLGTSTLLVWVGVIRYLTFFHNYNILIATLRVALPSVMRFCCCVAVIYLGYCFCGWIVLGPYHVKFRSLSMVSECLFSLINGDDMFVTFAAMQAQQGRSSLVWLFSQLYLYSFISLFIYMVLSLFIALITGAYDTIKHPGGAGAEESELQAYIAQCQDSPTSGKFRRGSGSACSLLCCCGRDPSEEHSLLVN
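Calcium fluorescence in TRPML1-DL cells induced overnight with Tet: a 110 s read after compound pin addition, then a 110 s antagonist read after challenge with 54-4 at 4 uM final (EC80).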
TRPV1 potentiator – HTS Assay for Compounds that Act as Potentiators of the Vanilloid Receptor 1 | 320,000 tested, 0.02% active | potentiation, % at 8.33 µM | AID 540277, 2011 | Transient receptor potential cation channel subfamily V member 1 (Homo sapiens), Q8NER1 | TRPV1-expressing cells, Fluo-8 calcium influx, capsaicin EC20 potentiation; host cell line not named in the record; control for the full effect not named in the record; active means potentiation above 80%; inconclusive means 30% to 80%; inactive means below 30%; further: 0% is about no effect
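TRPV1-expressing cells were cultured overnight at 35.5C and loaded with Fluo-8 calcium dye for 40 to 90 min at room temperature. After a 10 s baseline, compound was added and calcium influx was read kinetically for 3 min (ex 480/em 520 nm).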
TRPML1 agonist – qHTS for Agonists of the Human Mucolipin Transient Receptor Potential 1 (TRPML1). TRPML1-expressing cells, Ca2+ dye fluorescence, FDSS; host cell line not named in the record; reference of the full effect not given here. activation, % (no concentration beside the values). 410,000 tested, 0.12% active. AID 624414, 2012; in the data active = activation above about 50%; inconclusive = about 30% to 50%; inactive = below about 30%; further: 0% is about no effect; the text of the record puts the active cut at 80%
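TRPML1-DL cells, Tet-induced overnight (~16 h, 37 degrees C), loaded 45-90 min at room temperature with Ca8 no-wash calcium dye plus quencher. FDSS fluorescence: 10 s baseline, compound pin-transfer, 110 s agonist read, then EC80 54-4 (4uM final) and 110 s antagonist read.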
D2 PAM – Beta-Arrestin HTS for Positive Allosteric Modulators of the Human D2 Dopamine Receptor: Potentiators; D(2) dopamine receptor (Homo sapiens), P14416; DiscoveRx D2 beta-arrestin cells, luminescence, 90 min; 100% = 57 uM dopamine signal; potentiation, % (concentration not given with the values); 360,000 tested, 0.23% active; active = potentiation of 50% or more; inconclusive = 30% to 50%; inactive = 30% or less;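 further: compound concentration not given in the record; tested on top of an EC20 dose of dopamine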
Target sequence (P14416 whole entry, looked up): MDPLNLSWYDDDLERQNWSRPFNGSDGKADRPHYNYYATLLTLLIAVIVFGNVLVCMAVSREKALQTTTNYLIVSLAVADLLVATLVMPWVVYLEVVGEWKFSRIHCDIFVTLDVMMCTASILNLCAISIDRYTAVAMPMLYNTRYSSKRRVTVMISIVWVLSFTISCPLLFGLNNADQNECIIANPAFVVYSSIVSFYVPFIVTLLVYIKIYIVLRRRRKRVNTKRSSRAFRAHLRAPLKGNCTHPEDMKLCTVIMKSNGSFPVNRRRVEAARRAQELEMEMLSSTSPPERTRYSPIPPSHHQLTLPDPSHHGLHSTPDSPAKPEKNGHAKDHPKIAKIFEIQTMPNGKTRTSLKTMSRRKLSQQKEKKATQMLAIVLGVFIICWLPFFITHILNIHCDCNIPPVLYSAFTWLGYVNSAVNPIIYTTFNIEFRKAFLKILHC
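PathHunter beta-arrestin assay in DiscoveRx D2 cells. Compounds were added with an EC20 of dopamine (50 nM final) for 90 min at 37 deg C. Luminescence was read 1 h after detection reagent, with 57 uM dopamine as the EC100 control.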
CtBP-E1A inh – qHTS Assay for Inhibitors of the CtBP/E1A Interaction. activity change, % (test concentration not listed). 340,000 tested, 0.49% active. CtBP / adenovirus E1A interaction (AlphaScreen). AlphaScreen GST-E1A/His-CtBP binding, 1536-well; stronger effect = lower value; control for the full effect not named in the record; in the data active means activity change below about -65%; inconclusive means about -30% to -65%; inactive means above about -30%; further: on the % scale 0 is the no-effect control and ±100 the full control effect; compound concentration not given in the record
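Steps: dispense buffer (Tris pH 8.0, NaCl 300 mM, TCEP 1 mM, BSA, Tween 20); add 5X protein mix (GST-E1A, His-CtBP, 125 nM each); pin 23 nL compound; 2 h at 37 °C, dark; add 5X beads (50 ug/mL); 1 h; read.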
* = called active by the depositor; ? = inconclusive; · = no result given; & = joins results of further samples.

1) COc1cccc(OC2OC3COC(C)(C)OC3C(O)C2NC(C)=O)c1 (centres undefined)
2) COc1ccc(CNC(=O)C[C@H]2C(=O)N(Cc3ccccc3)C[C@@H]2Cc2ccccc2)cc1
3) COC(CNC(=O)c1ccc2c(c1)ncn2-c1cc(C)cc(C)c1)OC
4) CN(c1ccccc1)c1nc(N)c([N+](=O)[O-])c(NCCO)n1
5) CCc1ccc(NC(=O)c2cnccn2)cc1
6) CCOC(=O)/C(=C\c1ccccc1)NC(=O)c1ccccc1
assay / compound	1	2	3	4	5	6
Six1-Eya2 blk	9	2	6	-3	-1	-3
TRPML1 blocker	-1	-6	-21	-1	-2	-12
TRPV1 potentiator	-1	-19	12	17	-13	-11
TRPML1 agonist	-0.5	-0.6&0.1	-0.1	-1.0	0.6	-0.8
D2 PAM	14	-17	-1	-20	3	-18
CtBP-E1A inh	25	3	5	·	1	·

7) O=C(COc1ccc(CNC[C@H]2O[C@@H](n3ccc(=O)[nH]c3=O)[C@H](O)[C@@H]2O)cc1)Nc1nccs1
8) CCCC(=O)Nc1ccc2c(c1)nc(CN1CCN(C(C)=O)CC1)n2C
9) COc1ccc(C(=O)NCCCNC(=O)c2cnccn2)cc1Br
10) COc1ccc(/C=N/NC(=O)c2ccccc2O)cc1CSc1ccccn1
11) CCOC(=O)c1ccc(NC(=S)NCCC2=CCCCC2)cc1
12) O=C1N(c2ccccc2)C2CS(=O)(=O)CC2N1c1ccc(Br)cc1 (centres undefined)
assay / compound	7	8	9	10	11	12
Six1-Eya2 blk	-3	-1	-2	-3	-6	-5
TRPML1 blocker	-10	26	5	2	0	-3
TRPV1 potentiator	·	12	14	-12	28	-8
TRPML1 agonist	-0.5	-0.9	0.2	3.1	0.9	-0.4
D2 PAM	-1	-19	-2	-26	-11	-12
CtBP-E1A inh	1	-6	-1	5	7	4

13) CC(C)C(C)NC(=O)CN1C(=O)NC2(CCCCCC2)C1=O (centres undefined)
14) COc1cc(CC(=O)Nc2ccc(N3CCOCC3)cc2)cc(OC)c1OC
15) CCC(CC)C(=O)Nc1nnc(S(=O)(=O)N2CCCCCC2)s1
16) CCOc1ccc(/C=C/C(=O)c2ccccc2)cc1
17) COc1cccc(C2=NN(C(=O)CCCC(=O)O)C(c3cccs3)C2)c1 (centres undefined)
18) CCOC(=O)c1cccc(NC(=O)Cn2cnc3c2c(=O)n(C)c(=O)n3C)c1
assay / compound	13	14	15	16	17	18
Six1-Eya2 blk	3	-1	1	-2	-1	-1
TRPML1 blocker	-1	-6	17&-5	-3	11	1
TRPV1 potentiator	-5	2	-28	-3	13	5
TRPML1 agonist	0.1	0.0	0.7&0.4	-0.3	0.4	1.8
D2 PAM	-10	-1	0	-10	-6	13
CtBP-E1A inh	5	·	6	·	1	1

19) COC(=O)c1cc(=O)n(Cc2ccc(OC)c(OC)c2)c(=Nc2ccc(F)cc2)s1
20) CCC(=O)N1CCc2cc(S(=O)(=O)N3CCc4ccccc43)ccc21
21) O=C(c1cc(-c2ccc(F)cc2)nc2ccccc12)N1CCC1
22) CC1CCCC(C)N1/N=C/c1ccccc1F (centres undefined)
23) COc1cc(C(C)=O)ccc1OCC(O)CN1CCN(c2ccccc2)CC1 (centres undefined)
24) O=C(CNC(=O)c1ccco1)OCN1C(=O)c2ccccc2C1=O
assay / compound	19	20	21	22	23	24
Six1-Eya2 blk	2	4	-12	-5	-6	2
TRPML1 blocker	1	24	-6	22	22	-25
TRPV1 potentiator	1	2	·	-2	-2	-4
TRPML1 agonist	0.8	1.9	-0.4	0.5	1.1	0.0
D2 PAM	-1	-7	-1	-2	9	-25
CtBP-E1A inh	-2	0	-11	-5	6	10

Looked up by structure from the list above, three records:
23) COc1cc(C(C)=O)ccc1OCC(O)CN1CCN(c2ccccc2)CC1 (centres undefined)
21) O=C(c1cc(-c2ccc(F)cc2)nc2ccccc12)N1CCC1
22) CC1CCCC(C)N1/N=C/c1ccccc1F (centres undefined)
assay / compound	23	21	22
Six1-Eya2 blk	-6	-12	-5
TRPML1 blocker	22	-6	22
TRPV1 potentiator	-2	·	-2
TRPML1 agonist	1.1	-0.4	0.5
D2 PAM	9	-1	-2
CtBP-E1A inh	6	-11	-5

(continued)
25) CCN(CC)CCCNC(=O)CNC(=O)c1nn(-c2ccc(OC)cc2)c(=O)c2ccccc12
26) Cc1cc([N+](=O)[O-])cc2c1NC(=O)C2(O)N1CCCC(C)C1 (centres undefined)
27) CN(C)C(=O)/C(=C/c1ccc(-c2cccc([N+](=O)[O-])c2)o1)NC(=O)c1ccccc1
28) COc1cc2cc(CN(CCc3ccccc3C)C(=S)NCCCN(C)C)c(=O)[nH]c2cc1OC
29) Cc1cc(C)c2c(-n3cccc3)c(C(=O)NNS(=O)(=O)c3ccccc3)sc2n1
30) Nc1cc(C(=O)N/N=C/c2cccc([N+](=O)[O-])c2)n[nH]c1=O
assay / compound	25	26	27	28	29	30
Six1-Eya2 blk	5	-3	?	-5	-3	-9
TRPML1 blocker	4	3	28	-9	20	-5
TRPV1 potentiator	-1	20	-4	-6	·	-4
TRPML1 agonist	-0.2	0.6	1.2	-0.4	0.9	-0.9
D2 PAM	-1	-11	-2	-26	3	9
CtBP-E1A inh	0	·	-21	-10	7	1

31) OCC(CO)(CO)NC(=S)Nc1cc(Cl)cc(Cl)c1
32) CC(=O)N1CCN(c2ccc(NCc3cccc4ccccc34)cc2)CC1
33) COc1ncccc1-c1nnn(-c2ccc(Cl)c(Cl)c2)n1
34) CC1CCCN(C(=O)c2cc3c(-c4ccc(Cl)cc4)nn(C)c3s2)C1 (centres undefined)
35) CC(C)CC(=O)Nc1ccccc1N1CCCC1
36) O=C(O)/C=C/C(=O)N1CCN(C(=O)/C=C/C(=O)O)CC1
assay / compound	31	32	33	34	35	36
Six1-Eya2 blk	3	-25	4	0	0	1
TRPML1 blocker	4	18	-26	-18	-22	31
TRPV1 potentiator	-13	-8	-8	-10	-1	3
TRPML1 agonist	2.4	-0.1	1.1	0.0	0.2	-0.3
D2 PAM	-6	3	-1	-4	-14	-7
CtBP-E1A inh	1	?	·	-2	12	-23

37) COc1ccccc1CC(=O)Nc1ccc2c(c1)CCC2
38) O=C(O)CCc1ccc(-c2ccccc2)n1CC(=O)O
39) CCCCN1C[C@H](Cc2ccccc2)[C@@H](CC(=O)NCc2ccc(OC)cc2)C1=O
40) CC(C)(C)n1ncc2c(=O)n(CC(=O)Nc3ccccc3)cnc21
41) O=C(O)C1C2C=CC(C2)C1C(=O)NCCCN1CCOCC1 (centres undefined)
42) Cc1ccc(NC(=S)NCc2cccnc2)cc1
assay / compound	37	38	39	40	41	42
Six1-Eya2 blk	9	1	5	1	1	-4
TRPML1 blocker	-4	-6	-17	17	-5	1
TRPV1 potentiator	-1	7	-14	-9	2	-5
TRPML1 agonist	2.2	0.6	-0.6&-0.5	0.4	-0.5	-0.2
D2 PAM	-2	-4	-16	-9	-12	-24
CtBP-E1A inh	3	0	-22	-1	4	3

43) CC(=O)c1cccc(Nc2nc(-c3ccccc3)cs2)c1
44) CC1CN(C(=O)c2ccc(COc3ccccc3Cl)o2)CC(C)O1 (centres undefined)
45) Nc1ccc(C(=O)Nc2nccs2)cc1
46) Cn1nc(C(=O)NCC(=O)Nc2ccc(F)c(F)c2F)c2ccccc2c1=O
47) O=C(NCCCN1CCCC1)c1ccc2c(c1)N(Cc1cccc(Cl)c1)C(=O)c1ccccc1S2=O (centres undefined)
48) Cc1cc(C)n(C(=O)c2ccc(C)c(F)c2F)n1
assay / compound	43	44	45	46	47	48
Six1-Eya2 blk	10	-7	0	3	-7	9
TRPML1 blocker	-2	-21	2	3	2	10
TRPV1 potentiator	-2	-8	-18	6	3	?
TRPML1 agonist	1.4	1.0	-0.6	-0.9	1.4	-0.9
D2 PAM	-6	-9	4	-9	-30	2
CtBP-E1A inh	-15	1	-16	·	1	-5

49) Cc1cc(Cl)c(S(=O)(=O)Nc2cc(S(=O)(=O)N3CCOCC3)ccc2F)cc1OCC(N)=O
50) CC(=O)Nc1nonc1-c1nc2ccccc2n1N(C(C)=O)C(C)=O
51) O=C(Nc1ccccc1)Nc1ccccc1C(=O)NCCCN1CCOCC1
52) O=C(Nc1ccc(C(=O)N2CCCCC2)cc1)Nc1cccc(Cl)c1
53) Cc1c(C(=O)NCc2ccco2)oc2ccc(S(=O)(=O)N3CCC4(CC3)OCCO4)cc12
54) Cc1[nH]c(=O)[nH]c(=O)c1S(=O)(=O)N1CCCC(C(=O)NCc2ccccc2Cl)C1 (centres undefined)
assay / compound	49	50	51	52	53	54
Six1-Eya2 blk	6	-6	1	-2	-6	6
TRPML1 blocker	2	0	19	49	-6	-9
TRPV1 potentiator	4	4	0	3	1	3
TRPML1 agonist	0.2	-1.2	-0.4	0.5	-0.4	-1.4
D2 PAM	-3	1	-19	-10	-10	-1
CtBP-E1A inh	-5	-5	·	-4	-2	-3

55) O=[N+]([O-])c1ccc(N2CCN(S(=O)(=O)c3ccc(Cl)cc3)CC2)cc1NCc1cccnc1
56) CN1C(=O)N(C)C2(CC1(C)C)CC(C)(C)N(C)C(=O)N2C
57) CCOc1ncccc1C(=O)OCC(=O)NCc1ccc2c(c1)OCO2
58) O=C(CN1CCCC1)Nc1ccccc1Sc1ccc(Cl)cc1
59) CCOC(=O)C1=C(C)OC(N)=C(C#N)C1c1cc2c(cc1Br)OCO2 (centres undefined)
60) COc1cc(NC2c3ccccc3C(=O)N2Cc2ccccc2Cl)cc(OC)c1OC (centres undefined)
assay / compound	55	56	57	58	59	60
Six1-Eya2 blk	-10	6	0	-14	-4	-1
TRPML1 blocker	3	-2	-1	5	16	-3
TRPV1 potentiator	7	1	3	-14	-2	-6
TRPML1 agonist	-1.0	-0.1	2.3	1.4	2.9	0.4
D2 PAM	-4	-9	-15	-5	-6	-6
CtBP-E1A inh	-1	2	22	-13	-11	2
